ClpP mod: qHTS Assay for Activators of ClpP. purified B. subtilis ClpP, FRET peptide cleavage, 20 min. Potency, µM (titrated, usually from 57.5 µM), inactives show top-dose activity change, negative = active. 1.9% of 340,000 active. ATP-dependent Clp protease proteolytic subunit (Bacillus subtilis (strain 168)), P80244. AID 651965, 2013; active = well fitted falling curve with a large enough effect; inconclusive = small, poorly fitted or top-dose-only effect; inactive = no such curve, though single readings can be large or run the other way; further: the source files actives as falling curves though it sought activators and does not explain the sign; nearly all actives have a fitted effect of over 65% in size; many hits overshoot -100%
Target sequence (P80244 whole entry, looked up): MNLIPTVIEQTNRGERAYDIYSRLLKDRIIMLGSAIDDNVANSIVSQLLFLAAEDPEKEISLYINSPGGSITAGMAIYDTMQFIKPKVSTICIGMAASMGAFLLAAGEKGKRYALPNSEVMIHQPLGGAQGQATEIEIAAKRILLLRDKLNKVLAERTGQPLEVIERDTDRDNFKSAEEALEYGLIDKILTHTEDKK
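ClpP 10 microg/mL final, pH 8 Tris/KCl buffer with BSA, glycerol, Tween-20; compound pinned in; FRET-FV substrate; RT 20 min; Ex320/Em430; ΔFRET vs ADEP 5.8 microM, DMSO, no enzyme.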
Active calls of the source: *; ? = inconclusive; & = joins results of further samples. Potency means the concentration at half of the fitted maximal effect.

| mol | ClpP mod |
| --- | --- |
| CC(C)(C)NC(=O)C(c1ccccc1)n1c(=O)c(-c2cc3ccccc3[nH]2)nc2ccccc21 (stereo not drawn) | ? |
| COc1cccc(CNc2nc3cc(C(C)=C(C)C)sc3c(=O)n2C)c1 | -21% |
| Cc1ccc(S(=O)(=O)N2C[C@H]3C(=O)C[C@@H](c4ccc(Cl)cc4)N(S(=O)(=O)c4ccc(C)cc4)[C@H]3C[C@H]2c2ccccc2)cc1 | -0.2% |
| O=S(=O)(c1ccc(F)cc1)N1CCN(c2nc(-c3cccs3)nc3ccccc23)CC1 | 4.0%&4.3% |
| CC(=O)Nc1cc(-c2ccc(S(C)(=O)=O)cc2)cn2c(-c3ccc(F)c(Cl)c3)cnc12 | ? |
| COc1cccc(CNc2nc3cc(-c4cccc(Cl)c4)sc3c(=O)n2C)c1 | 20µM* |
| O=C1NC(=S)SC1=Cc1ccccc1C(=O)O | -2.5% |
| CCCNC(=O)C1(C)CCN(C(=O)c2cccc(OC(F)(F)F)c2)C1 (stereo not drawn) | -1.0% |
| Cc1ccc(-c2csc(C(O)c3cccc(Cl)c3)n2)cc1C (stereo not drawn) | -0.5% |
| CC1(Oc2cnc(Cl)c3ccccc23)CCN(Cc2ccc(OC(F)(F)F)cc2)C1 (stereo not drawn) | 4.6% |
| Cc1cc(Br)cn2c(Cc3ccccc3C(F)(F)F)c(-c3cccc(Br)c3)nc12 | -4.4% |
| CN(C)CCNc1ncnc2c1ncn2[C@H]1CN(Cc2cccs2)C[C@@H](CO)O1 | -0.9% |
| CCOC(=O)[C@]12CCC=C1N(Cc1ccco1)C(=O)[C@H](CC(=O)NCC13CC4CC(CC(C4)C1)C3)C2 | 0.1% |
| Oc1cccc2ccc[n+](CC(O)CBr)c12 (stereo not drawn) | -3.4% |
| CNc1nc(Oc2cccc(F)c2)c2sccc2n1 | 5.0% |
| CC(=O)Nc1cccc(-c2ccnc3c2CC(C(=O)NCc2ccc(F)c(F)c2)O3)c1 (stereo not drawn) | -17% |
| Cc1ccc(NC(=O)c2cnn3c2NC(=C2CC2)C=C3C(F)F)cc1 | -7.8% |
| COc1cc(NC(=O)Nc2nc(C(N)CCc3ccccc3)cs2)cc(OC)c1OC (stereo not drawn) | -9.1% |
| CCOC(=O)C1(C)CCN1C(=O)c1ccc(-c2ccccc2)cc1 (stereo not drawn) | -1.2% |
| O=C(/C=C/[C@H]1O[C@@H](n2cnc3c(NC(=O)c4ccccc4)ncnc32)[C@H](O)[C@@H]1O)NCCc1c[nH]c2ccccc12 | 0.6% |
| O=C(NCc1ccncc1)[C@@H]1CCCN1C(=O)[C@@H]1CCCN1C(=O)c1ccccc1 | 1.0% |
| Cc1cnc(CNC(=O)c2ccc3nc([C@@H]4O[C@H](CO)[C@H](O)[C@H](O)[C@H]4O)[nH]c3c2)cn1 | 1.0% |
| Cc1ccc(S(=O)(=O)N2CCN(c3nc(-n4cnc5ccccc54)nc4ccccc34)CC2)cc1 | -25% |
| O=C(O)c1cc2cccc([N+](=O)[O-])c2[nH]1 | 0.6%&-1.5% |
| COc1ccccc1-c1cc(NC=O)c2ncc(-c3ccc(F)cc3)n2c1 | -7.5% |
| Cn1c(NCc2ccncc2)nc2cc(-c3ccsc3)sc2c1=O | -22% |
| CC(C)(C)c1ccc(CC(=O)N2CCC2(C)C(=O)NCc2cccs2)cc1 (stereo not drawn) | -0.8% |
| Cc1ccc2ccccc2c1C(O)c1ncc(-c2cccc(F)c2)[nH]1 (stereo not drawn) | -4.7% |
| COC(=O)[C@@]12C[C@@H](CC(=O)NCc3ccccc3)C(=O)N(Cc3ccco3)C1=CCC(C)(C)C2 | -0.4% |
| Cn1c(=O)c2cc(NC(=O)NCc3ccccc3)ccc2n1Cc1cccc(C(F)(F)F)c1 | 5.0% |
| O=C(C(=Cc1ccc(O)cc1)c1ccccc1)c1ccccc1 | -1.4% |
| CCCN1CNc2c(c(=O)[nH]c(=S)n2CCC(C)C)C1 | -1.8% |
| CC1(C(=O)NCc2ccc3c(c2)OCO3)CCN1CCc1ccccc1 (stereo not drawn) | -0.8% |
| OC(c1ccc(F)c(F)c1)c1nc(-c2cccc(F)c2)cs1 (stereo not drawn) | -2.2% |
| CC1=C(C(=O)N2CCCCCC2)CC(CC(=O)NCCN2CCOCC2)C(=O)N1Cc1ccc(F)cc1 (stereo not drawn) | 0.3% |
| CSCCC(C(=O)NC(C)(C)C)n1c(-c2cccc(NC(C)=O)c2)nc2ccccc21 (stereo not drawn) | 4.7% |
| Cc1cc2nc(-c3ccc(Cl)cc3)c(Cc3cccc(Cl)c3)n2c(C)c1Br | 1.5% |
| COC(=O)C[C@H]1C=C[C@H](NC(=O)c2ccccn2)[C@@H](CO)O1 | -1.0% |
| COc1ccc(Br)c(Cn2c(C)c(C(=O)NCc3ccc(F)cc3)sc2=O)c1 | 0.1% |
| COc1cc(C(=O)N2C[C@H]3CON(C)[C@H]3C[C@H]2c2ccc(N3CCCCC3)cc2)cc(OC)c1OC | 0.8% |
| CCN(CC)CCN1C(=O)c2ccccc2NC1c1ccc(OC)c(COc2ccc(NC(C)=O)cc2)c1 (stereo not drawn) | 4.2% |
| COC(=O)C1=CN(c2ccc(N3CCOCC3)cc2)C(N)=C(C#N)C1c1cccc(F)c1 (stereo not drawn) | -3.1% |
| CCOc1ccc(-c2noc(-c3csc([C@@H]4C[C@H](O)[C@@H](CO)O4)n3)n2)cc1 | -6.2% |
| O=C(NCCN1CCC(n2c(=O)[nH]c3ccccc32)CC1)c1ccc(F)cc1 | 1.7% |
| COc1cccc(CN2CCC(C(=O)NC(c3ccc4c(c3)OCO4)c3ccccn3)CC2)c1 (stereo not drawn) | -0.2% |
| Cc1ccc2ccccc2n1 | -15% |
| CC1(Cc2ccc(Cl)cc2)C(=O)Nc2c(Cl)cccc21 (stereo not drawn) | -1.2% |
| C(=NNc1ccc2ccccc2n1)c1ccccn1 | -0.2% |
| CCOc1ccc(CCN2C(=O)C(=O)N([C@@H](Cc3ccc(O)cc3)CN3CCC[C@H]3CN3C(=O)C(=O)NC[C@@H]3Cc3ccc(O)cc3)C[C@@H]2Cc2ccc(O)cc2)cc1 | -2.3% |
| COc1ccc(NC(=O)C2(C)CCN2Cc2ccccc2Cl)cc1OC (stereo not drawn) | -4.3% |
| O=S(=O)(c1ccccc1)n1cc(-c2cccc3nccn23)c2ccccc21 | -8.4% |
| CCN(CC)C(=O)c1cccc(-c2csc(C(C)(O)c3ccccc3)n2)c1 (stereo not drawn) | -0.5% |
| O=C(Nc1ccc2c(c1)OCCO2)C1c2ccccc2OCC(=O)N1CC(F)(F)F (stereo not drawn) | -1.8% |
| COc1ccc(OC(F)(F)F)cc1CC1(C)C(=O)Nc2c(Cl)ccc(Cl)c21 (stereo not drawn) | 0.3% |
| CCOC(=O)N(C)c1c(CC)nc2c(OCc3ccccc3C)cccn12 | -5.5% |
| CC(C)(C)NC(=O)C(CCc1ccccc1)n1c(=O)c(-c2ccccc2)nc2ccccc21 (stereo not drawn) | -30% |
| CCOC(=O)[C@]12CCCC=C1N(CCC1=CCCCC1)C(=O)[C@H](CC(=O)NCCC(C)C)C2 | 2.6% |
| O=C(Nc1ccccc1Cl)c1cc(C2CCCN(C(=O)CCc3ccccc3)C2)on1 (stereo not drawn) | -17% |
| CCC(C(=O)NC(C)(C)C)n1c(-c2cccc(NC(C)=O)c2)nc2ccccc21 (stereo not drawn) | 4.4% |
| O=C(Nc1ccc(-n2nncc2-c2ccccc2)cc1)c1ccccc1 | 3.3% |

Arranged by formula weight (highest first): part of the list above.
| mol | ClpP mod |
| --- | --- |
| COc1ccc(OC(F)(F)F)cc1CC1(C)C(=O)Nc2c(Cl)ccc(Cl)c21 (stereo not drawn) | 0.3% |
| CCC(C(=O)NC(C)(C)C)n1c(-c2cccc(NC(C)=O)c2)nc2ccccc21 (stereo not drawn) | 4.4% |
| COc1ccc(NC(=O)C2(C)CCN2Cc2ccccc2Cl)cc1OC (stereo not drawn) | -4.3% |
| O=C(Nc1ccc(-n2nncc2-c2ccccc2)cc1)c1ccccc1 | 3.3% |
| CC1(Cc2ccc(Cl)cc2)C(=O)Nc2c(Cl)cccc21 (stereo not drawn) | -1.2% |

Reprinted at random: two compounds from above, in no set order.
| mol | ClpP mod |
| --- | --- |
| CCOc1ccc(CCN2C(=O)C(=O)N([C@@H](Cc3ccc(O)cc3)CN3CCC[C@H]3CN3C(=O)C(=O)NC[C@@H]3Cc3ccc(O)cc3)C[C@@H]2Cc2ccc(O)cc2)cc1 | -2.3% |
| C(=NNc1ccc2ccccc2n1)c1ccccn1 | -0.2% |

(list continues)
| mol | ClpP mod |
| --- | --- |
| OCC1OC(c2ccc(O)cc2O)C(O)C1O (stereo not drawn) | 0.3% |
| O=C(NCc1ccco1)c1cccc(-c2ccc3nncn3c2)c1 | -7.1% |
| COc1cc(CN2C(=O)C(Cc3ccccc3)ON=C2c2ncccc2C)cc(OC)c1 (stereo not drawn) | -0.4% |
| O=C(NCc1ccccc1)c1cc(C2CCCCN2C(=O)c2ccc(Cl)cc2)on1 (stereo not drawn) | -1.6% |
| CCCNC(=O)C1(C)CCN(CCOc2ccc(Cl)cc2)C1 (stereo not drawn) | 2.0% |
| O=C1NC[C@H](CCCCN2C[C@H](Cc3ccccc3)N(CCc3ccccc3)C(=O)C2=O)N(CCc2ccc(O)cc2)C1=O | 2.3% |
| Cc1cccc(C(O)c2ncc(-c3ccc(C(F)(F)F)cc3)[nH]2)c1C (stereo not drawn) | -3.3% |
| CNc1cncc(-c2ccc(O)cc2)n1 | 5.0% |
| O=C(O)c1ccc(CN2C[C@@H](CO)O[C@@H](n3cnc4c(Nc5ccccc5)ncnc43)C2)cc1 | -2.2% |
| COc1cccc(C(C)(O)c2nc(-c3cccc4cccnc34)cs2)c1 (stereo not drawn) | ? |
| Cc1ccn2c(NC3CCCCC3)c(-c3ccc(SC4CCCCC4)cc3)nc2c1 | 30% |
| Cc1nc(NCC(=O)c2c[nH]c3ccccc23)sc1C | -16% |
| OC(c1ccc(Cl)c(F)c1)c1ncc(-c2cccc(F)c2)[nH]1 (stereo not drawn) | 1.0% |
| COc1ccc(-c2cnc(C(O)c3ccc(-c4ccccc4)cc3)[nH]2)cc1 (stereo not drawn) | -12% |
| Cc1cnc2ccc3ccccc3c2c1C | 4.2% |
| CC1(c2nnnn2-c2ccc3c(c2)OCCO3)CCC(=O)N1Cc1ccc(F)cc1 (stereo not drawn) | -0.2% |
| COC(=O)c1ccc2nc(-c3cccc(Br)c3)c(CC3CCCCC3)n2c1 | -7.6% |
| COC(=O)C[C@@H]1C=C[C@@H](NC(=O)c2ccc3c(c2)OCO3)[C@@H](CO)O1 | -12% |
| COc1ccc(OC)c(/C=C/c2cc3ccccc3cn2)c1 | -25% |
| C(=C1C=c2ccccc2=C1)c1ccc(N=Nc2ccc(C=C3C=c4ccccc4=C3)cc2)cc1 | 0.7% |
| COc1ccc(C(C)=O)cc1Cn1c(C)c(C(=O)NCc2cccc(Cl)c2)sc1=O | 2.1% |
| Cc1nc2ccc(C(=O)NC(C)(C)C)cn2c1N(C)C(=O)CCc1ccccc1 | -15% |
| O=C1NCCc2onc(-c3ccc(Br)cc3)c21 | -2.2% |
| C=CCNc1ncnc2c1ncn2[C@H]1CN(CCOC)C[C@@H](CO)O1 | -0.3% |
| COCCN1C(=O)CN(S(C)(=O)=O)CC1(C)C(=O)Nc1ccc2c(c1)OCCO2 (stereo not drawn) | -2.8% |
| CN(Cc1cn(Cc2ccc(C(F)(F)F)cc2)nn1)C1CN(Cc2cn(Cc3ccc(C(F)(F)F)cc3)nn2)S(=O)(=O)C1 (stereo not drawn) | 2.2% |
| OCCN1CCN(c2ncnc3c2ncn3[C@H]2CN(Cc3ccc(Cl)cc3)C[C@@H](CO)O2)CC1 | -1.7% |
| COc1cc(CN2CCC(C(=O)NC(c3ccc(F)cc3)c3ccc4ccccc4n3)CC2)cc(OC)c1 (stereo not drawn) | -4.5% |
| CC(C)NC(=O)COC(=O)CNC(=O)C1CCCCC1 | -2.6% |
| COc1ccccc1Cc1c(-c2ccc(OC)c(OC)c2)nc2ccc(Br)cn12 | -6.1% |
| CC(=O)Nc1cccc(-c2ccnc3c2CC(C)(C(=O)NCC2CC2)O3)c1 (stereo not drawn) | -19% |
| CC(=O)Nc1cc(-c2ccc(N3CCN(C)CC3)cc2)cn2c(-c3ccc(F)cc3)cnc12 | -15% |
| CSCCC(c1nnnn1Cc1ccccc1)N1CCN(C/C=C/c2ccccc2)CC1 (stereo not drawn) | -3.2% |
| CC1(C(=O)Nc2ccc3c(c2)OCCO3)CN(S(C)(=O)=O)CC(=O)N1CCc1ccc(O)cc1 (stereo not drawn) | -1.7% |
| CCc1nc2ccc(C(=O)NCCOc3ccc(OC)cc3)cn2c1N(C)CCCc1ccccc1 | -8.7% |
| COC(=O)[C@]12CCCCC=C1N(Cc1cccc3ccccc13)C(=O)[C@H](CC(=O)NCc1cccc(C(F)(F)F)c1)C2 | -8.1% |
| CCN(C)C1CN(Cc2cn(CCCOC)nn2)S(=O)(=O)C1 (stereo not drawn) | 1.0% |
| O=C1c2ccccc2C(c2nnnn2Cc2ccccc2)N1CCCN1CCOCC1 (stereo not drawn) | 0.9% |
| COc1ccc(C(O)c2nc(-c3cc4ccccc4o3)cs2)cc1 (stereo not drawn) | -3.9% |
| CCOc1ccc(-c2cc(C(=O)NCc3cc(C(F)(F)F)cc(C(F)(F)F)c3)[nH]n2)c(C)c1 | -0.8% |
| CCCS(=O)(=O)NC(=O)C1(C)CCN(C(=O)c2cc3ccccc3s2)C1 (stereo not drawn) | 0.1% |
| O=c1c2c([nH]n1-c1ccccc1)C[C@@H](C1CCCCC1)O[C@H]2c1ccc(F)cc1 | -0.4% |
| COc1c(C)cc(C(O)c2ncc(-c3ccccc3Cl)[nH]2)cc1C (stereo not drawn) | 0.8% |
| N#Cc1nnn2c1nc(N)c1c(Cl)cccc12 | -13% |
| C[C@@H](c1ccccc1)N1C[C@H](COCc2ccccc2)Oc2cc(N3CC[C@@H](N(C)C)C3)ccc2S1(=O)=O | -6.1% |

Not all compounds are listed. The share of hits here may be higher or lower than overall.
